From PubChem BioAssay
MgrA DNA FP: S. aureus MgrA activity modulators, primary screen, biochemical, S. aureus Newman, fluorescence polarization; MgrA-DNA binding; inhibition, %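 (about 10 µg/mL by stock and volumes)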; actives 0.13% (n = 84,000); AID 602314, 2012;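 active = above 50% in either of two replicates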;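 note: 0% = protein plus DNA without compound and 100% = DNA alone without protein; higher means less MgrA bound to DNA so lower polarization; one replicate is shown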
Sa helicase inh: inhibitors of S. aureus replicative helicase, primary screen, biochemical, fluorescence unwinding readout; purified S. aureus helicase, fluorescence unwinding assay; about half of the hits fall short of the stated cut; inhibition, %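 (tested at about 80 µM)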; actives 0.05% (n = 120,000); replicative DNA helicase (DnaC/DnaB), Staphylococcus aureus;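 active = both duplicates at 50% or more, or one of them with a favoured structure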;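 note: 0% = mean of negative control wells and 100% = mean of positive control wells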
* = called active by the depositor; . = no result given; & = joins results of further samples. A portion of the library; the hit share may differ from the screen's.

item	SMILES	MgrA DNA FP	Sa helicase inh
1	O=c1c2c(nc3n1CCC3)sc1c(O)c(Br)ccc12	3.9	-15
2	O=C(C1CC2C=CC1C2)N1CCN(c2ccccc2)CC1 (stereo unspecified)	.	-13
3	CCCN(C(=O)CSc1ccccc1C(=O)O)C1CCS(=O)(=O)C1 (stereo unspecified)	.	-7
4	Cc1cc(N2CCCC2)nc(-n2nc(C)cc2C)n1	.	0
5	CS(=O)CCNC(=O)Nc1ccc(Cl)c(Cl)c1 (stereo unspecified)	0.2	4
6	O=C(Cn1cnnn1)Nc1ccccc1Cc1ccccc1	.	-9
7	CC(C)(C)C(=O)/C(C#N)=C/c1ccc(C#N)cc1	.	-4
8	CSc1nc(C)c2cc(C)oc2n1	.	14
9	CCn1c(SC(C)C(=O)NC(C)c2ccc(F)cc2)n[nH]c1=O (stereo unspecified)	.	-7
10	COC(=O)CSc1sc(C#N)c2c1C(=O)CC(C)(C)C2	2.0	.
11	NS(=O)(=O)c1ccccc1	2.0	-5
12	CC(NC(=O)c1ccc2c(c1)N(C)CCS2)c1ccccc1 (stereo unspecified)	.	16
13	CN(C)C(=S)Nc1ccc(S(=O)(=O)N2CCCCC2)cc1	-2.3	.
14	O=C(Cn1cc(S(=O)(=O)N2CCCC2)c(S(=O)(=O)N2CCCC2)c1)N1CCc2ccccc21	.	-24
15	CC(CNC(=O)C1CCCN(C(=O)N2CCOc3ccccc32)C1)c1ccccc1 (stereo unspecified)	.	0
16	COc1cccc(-c2nc(-c3ccccc3)[nH]c2-c2cccc(OC)c2)c1	1.8	9
17	CSC1=N/C(=C\N(C)C)C(=O)N1CCOc1ccc(Cl)cc1	-1.0	.
18	COC(=O)NC(=C(Cl)Cl)c1ccc(C)c(F)c1	-1.1	-2
19	Cc1cc(C(=O)N2CC(C)CC(C)C2)n[nH]1 (stereo unspecified)	0.3	9
20	N#Cc1c(N)n[nH]c1CCCCCN=Cc1cc(Br)ccc1O	.	0
21	Nc1nc(=S)nc(-c2ccncc2)[nH]1	.	-4
22	CCCc1nnc(NC2CCCC2)s1	-0.3	15
23	CC1=NNC(c2ccc(O)cc2)C1 (stereo unspecified)	0.3	-13
24	CC(NC(=O)Cc1ccc(F)cc1)C(c1cccs1)N1CCN(C)CC1 (stereo unspecified)	.	17
25	Cc1nn(-c2ccccc2)c2c1-c1onc(C(=O)NCc3ccco3)c1CC2	.	-23
26	COCc1cc(=O)oc2cc(OC)ccc12	.	-3
27	CC(=O)Nc1c(-c2ccccc2)c2cc(Br)ccc2[nH]c1=O	.	-14
28	CCOC(=O)N1CCC(N2C(=O)c3ccc(C(=O)NCCOC)cc3C2=O)CC1	.	-24
29	Cc1ccccc1Cn1cc(S(=O)(=O)CC(=O)Nc2ccc3c(c2)OCCO3)c2ccccc21	0.8	10
30	Cc1cccc(NC(=O)Cn2cc(CO)c3ccccc32)c1	-2.0	6
31	O=C(O)C1CC(=O)N(c2ccccc2)C1 (stereo unspecified)	-2.8	6
32	COc1cc(C#N)ccc1Oc1nc(CN2CCOCC2)nc2scc(-c3cccs3)c12	.	2
33	CN1C(=O)C(=Cc2cccn2-c2ccc(N(C)C)cc2)C(=O)N(C)C1=S	0.8	-12
34	CCc1ccc(CNCc2cccs2)cc1	-1.7	4
35	CC1Oc2ccccc2N(CCC(=O)O)C1=O (stereo unspecified)	.	17
36	[O-]/[N+](=C\c1ccncc1)c1ccc(Cl)cc1	.	-10
37	OC1CCC(NCc2ccc(-c3nc4ccccc4s3)o2)CC1 (stereo unspecified)	.	-10
38	CC(C)CN1C(=O)c2ccc(C(=O)Nc3nccs3)cc2C1=O	.	-8
39	Nc1nnc(SCC(O)Cn2c3c(c4ccccc42)CCCC3)s1 (stereo unspecified)	1.9	-13
40	CCN(CC(=O)NC)S(=O)(=O)c1ccccc1	-3.6	1
41	COc1ccc(-c2ncc3ccccn23)cc1OC	.	-4
42	COc1cc2nc(CN(C)C3CCCCC3)[nH]c(=O)c2cc1OC	.	-12
43	O=C(O)c1cscc1Sc1ccc(Cl)cc1	0.2	.
44	O=C(CCn1c(=O)c2ccccc2n(Cc2ccccc2)c1=O)NCc1ccc2c(c1)OCO2	0.2	-14
45	NC(=O)N/N=C/c1cccs1	.	-10
46	CCc1ccc(C(=O)Nc2cccnc2Oc2ccc(Cl)cc2)cc1	0.5	.
47	CC1CC(C)CN(c2ccc(NC(=O)c3ccc(Cl)cc3)cc2C(=O)O)C1 (stereo unspecified)	2.0	.
48	c1csc(-c2nnc(COc3ccc4c(c3)OCO4)o2)c1	.	30
49	Nc1cc(-c2cccs2)[nH]n1	-1.4	.
50	Cc1cc(F)ccc1S(=O)(=O)Nc1ccc(C(=O)N2CCCCCC2)cc1	-1.2	-10
51	CCOC(=O)c1c(/N=C/c2nc(-c3ccco3)oc2O)sc2c1CCC2	4.2	-24
52	CCOC(=O)N1CCC(NC(=O)CCc2c(C)nc3c(-c4ccc(F)cc4)c(C)nn3c2C)CC1	-0.5	12
53	CCCCNC(=O)Nc1ccccc1Oc1ccccc1	.	13
54	O=C1CN(C(=O)/C=C/c2ccccc2)C(c2ccccc2)c2cc(Br)ccc2N1 (stereo unspecified)	-0.7	7
55	Cc1[nH]c2ccccc2c1C(=O)COc1ccccc1	-2.3	-6
56	Cc1cccc(C(N)=S)c1	.	6
57	O=C(/C=C/c1ccco1)NNc1c(F)c(F)cc(F)c1F	.	-4
58	COc1ccc(CCNC(=O)CCCn2c(=O)[nH]c3ccccc3c2=O)cc1OC	.	3
59	CSC(=NCc1ccco1)Nc1ccc(Cl)cc1	-1.0	.
60	Fc1cc(Br)c(-n2cccc2)c(Br)c1Cl	-1.6	.

More entries follow.
item	SMILES	MgrA DNA FP	Sa helicase inh
61	CC(C)(C)n1c(O)c(/C=C2\C=c3ccccc3=N2)c(=O)[nH]c1=O	-3.4	8
62	O=C1c2nc3cc(-c4ccccc4)[nH]n3c(=O)c2CN1C1CCCCC1	-2.2	.
63	O=C(COC(=O)c1nn(CCO)c(=O)c2ccccc12)Nc1ccc(Cl)c(Cl)c1	.	10
64	S=C(NCCc1ccccc1)N1CCc2ccccc21	4.2	8
65	O=C(Nc1ccc(Cl)cc1)Nc1nc(-c2ccccc2)cs1	3.8	5
66	NC(=O)c1sccc1Br	3.6	.
67	O=C(O)CSCc1ccc(Br)cc1	-2.2	11
68	COc1cc(C(=O)NC(C)C(=O)NN)cc(OC)c1OC (stereo unspecified)	2.5	22
69	CCN1CCN(C(=O)N[C@@H](C(=O)N[C@@H]2C(=O)N3[C@@H]2SC(C)(C)[C@@H]3C(=O)O)c2ccccc2)C(=O)C1=O	-6.3	.
70	CCOC(=O)c1c(NC(=O)c2ccco2)sc2c1CCCC2=O	1.9	-6
71	Clc1cccc(N2CCN(c3c4c(nc5ccc(Cl)cc35)CCC4)CC2)c1	-2.2	21
72	CC(C)NC(=O)Oc1ccccc1	-4.1	.
73	COc1cc2c(cc1OC)CN(Cc1nc3ccsc3c(=O)[nH]1)CC2	.	-16
74	Cc1cccc(NCc2ccccc2O)c1	0.5	8
75	O=c1[nH]c(=S)[nH]c(C(F)(F)F)c1Cc1ccc(Cl)c(Cl)c1	-2.3	.
76	O=S1(=O)CCC(NC(=S)S)C1 (stereo unspecified)	6.8	-20
77	CC(=O)Nc1c(C(=O)O)oc2ccc(Cl)cc12	-3.2	12
78	O=C(/C=C/c1ccco1)ON1C(=O)c2ccccc2C1=O	4.0	8
79	CCOC(=O)c1sc(COc2cccc(Cl)c2)nc1C	0.4	.
80	CC1(CSc2ccccc2C(=O)NCC2COc3ccccc3O2)NC(=O)NC1=O (stereo unspecified)	.	8
81	O=C(OCCc1csc2ccccc12)c1ccc(C(F)(F)F)cc1	-0.3	.
82	CCOc1ccc(C(=O)NN)cc1	.	-10
83	Cc1ccc(C)n1C(CC(=O)O)C1CCCCC1 (stereo unspecified)	27	.
84	COc1ccc2cc(C(=O)Nc3ccccc3)c(=Nc3ccc(C#N)cc3)oc2c1	-0.6	.
85	CS(=O)(=O)Cc1ccccc1	8.3	-2
86	COc1ccc2c(c1)CCC(C(C)=O)C2=O (stereo unspecified)	1.7	.
87	COC(=O)CNC(=O)Cc1c(F)cccc1Cl	-0.2	5
88	CC(C)(C)c1cc(C(=O)Oc2ccc(Cl)cc2)n(Cc2ccccc2)n1	0.9	.
89	CC1(C)CCCC2=C1CC1C(=O)N(CCC[N+](C)(C)C)C(=O)C1C2 (stereo unspecified)	-0.2	6
90	COc1ccc(-c2csc3nc(-c4ccccc4OC)oc(=O)c23)cc1	0.1	.
91	Cc1noc(/C=C/NCc2cccnc2)c1S(=O)(=O)N(C)CC(=O)N1CCc2ccccc21	.	16
92	N#Cc1c(N2CCCCC2)nc(N)c2c(N)nc(SCC(=O)O)cc12	.	-16
93	O=C(Nc1cccnc1)C1CC(c2ccc(Cl)cc2)=NO1 (stereo unspecified)	.	33
94	Nn1c(CCCc2nc3ccccc3c(=O)n2N)nc2ccccc2c1=O	-1.0	-5
95	Cc1oc(-c2ccc(Cl)cc2)nc1CN1CCC(C(=O)NCc2ccc3c(c2)OCO3)CC1	.	5
96	CNC(=O)COc1ccc(C(=O)c2ccc(F)cc2)cc1	.	-4
97	C[N+]1(C)C2CC[C@H]1CC(OC(=O)C(O)c1ccccc1)C2 (stereo partly specified)	2.0	.
98	CC(OC(=O)Cn1c(=O)oc2ccccc21)C(=O)N(C)Cc1cccc(F)c1 (stereo unspecified)	.	-11
99	c1nnnn1CC1CCOCO1 (stereo unspecified)	0.1	5
100	O=C(NCc1cccs1)c1ccc2ccccc2n1	.	-12
101	COCCN(Cc1ccccc1)S(=O)(=O)c1cccc(C#N)c1	.	-5
102	O=C(Nc1cc(C(F)(F)F)cc(C(F)(F)F)c1)C(=S)N1CCCCC1	5.5	-11
103	Cc1sc2ncnc(SCC(=O)c3ccccc3)c2c1C	-2.0	13
104	COc1ccc(Cl)cc1NC(=O)NCC1CCN(C(=O)OC(C)(C)C)CC1	.	-2
105	O=C(Nc1cccc(NC(=S)NC(=O)c2cccc3c(Br)cccc23)c1)c1ccco1	12	27
106	CCOC(=O)c1cnn(C)c1NS(=O)(=O)c1ccc(Cl)cc1	-0.2	.
107	CCO/C=C1\C(=O)N(c2ccc(C)cc2C)C(=O)c2cc(OC)ccc21	0.9	-16
108	Cc1nc2sccn2c(=O)c1S(=O)(=O)NCc1cccnc1	.	-11
109	CC(=O)[C@H]1CCC2C3CCC4=CC(=O)CC[C@]4(C)C3CC[C@@]21C (stereo partly specified)	1.3	.
110	Clc1ncnc2sccc12	.	-1
111	CCCn1c(SCc2cc3c(cc2Br)OCCO3)n[nH]c1=O	.	-8
112	Cn1c(N)c(C(=O)CN2C(=O)c3ccccc3S2(=O)=O)c(=O)n(C)c1=O	.	-15
113	C/C(=N\O)C(=O)NCCc1c[nH]c2ccccc12	0.6	13
114	CCN(CC)C(=O)COc1ccccc1C(=O)NCc1ccccc1	.	5
115	Nc1ccc2c(c1)ncn2C1CCCCC1	-3.8	7
116	COc1ccc(CCn2c(N)c(-c3nc4ccccc4s3)c3nc(C#N)c(C#N)nc32)cc1OC	.	3
117	O=C(O)CCCN=Cc1c(O)c2ccccc2oc1=O	.	33
118	NNC(=O)c1ccc(OCC(O)CO)cc1O (stereo unspecified)	-1.8	4
119	Cc1onc(-c2c(F)cccc2Cl)c1C(=O)Oc1ccccc1	-0.7	.
120	O=C(Sc1ccccc1)c1ccc2ncsc2c1	-4.8	.

Next structures follow:
item	SMILES	MgrA DNA FP	Sa helicase inh
121	CNC(=O)C12N=CNN=C1N(C)C(=O)N2C (stereo unspecified)	.	-33
122	CCOC(=O)Cc1cc(=O)[nH]c(=O)[nH]1	.	2
123	CN1c2ccccc2C(=O)NC1C1CC=CCC1 (stereo unspecified)	1.4	.
124	Cc1ccccc1NC(=O)Cn1c(C(F)(F)F)nc2ccccc21	0.7	.
125	c1ccc2c(-c3nnc4n3CCCCC4)c[nH]c2c1	-0.8	8
126	NS(=O)(=O)c1cc2c(cc1Cl)NC(CSCc1ccccc1)=NS2(=O)=O	4.5&-1.9	.
127	CSC1=N/C(=C\c2c(C)nn(-c3ccccc3)c2Cl)C(=O)S1	5.3	3
128	O=C(NCC1CCCO1)c1csc2c1CCCCC2 (stereo unspecified)	.	10
129	COc1ccc(C(=O)Oc2ccc3c4c(c(=O)oc3c2)CCCC4)cc1OC	.	-8
130	COc1cc(NC(=O)NCC2CCN(Cc3cc(C)ccc3C)CC2)cc(OC)c1	0.3	-11
131	CC1CCC(C(C)C)C(OC(=O)Cn2nnc3c(cnn3-c3ccccc3)c2=O)C1 (stereo unspecified)	-2.4	6
132	O=C1C2CC=CCC2C(=O)N1c1cccc2ccccc12 (stereo unspecified)	-1.7	3
133	CC(C)(C)c1ccc(NC(=O)CSCC(=O)NN)cc1	-12	.
134	c1coc(CNC2CCCCCCC2)c1	-6.8	-1
